Screening data: PubChem, National Center for Advancing Translational Sciences (NCATS)
Rango complex inh – inhibitors of Rango-importin beta complex formation | Q14974 | Potency, µM (titrated, usually from 92.2 µM), for the others: at the highest dose inhibition of complex formation | hit rate 0.031% among 340,000 | Rango CFP/YFP FRET sensor + importin beta, 45 min; active = rising FRET ratio curve, often small or poorly fitted; inconclusive = mostly compound fluorescence or quenching in the first reads; inactive = flat curves in all reads;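 further: potency means the concentration at half of the fitted maximal effect; 0% = DMSO wells and 100% = buffer wells lacking importin beta; nearly all actives have a fitted effect of over 15% in size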
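Inhibition scored from the CFP 486 nm/YFP 530 nm FRET ratio 45 min after adding 0.125 microM importin beta to 50 nM Rango biosensor preincubated 5 min with compound (room temperature, PBS with DTT, Tween-20, BSA). No-importin wells as positive control.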
miR-21 reporter – miR-21 reporter, rising signal; HeLa miR-21 FLuc reporter, luciferase, 48 h; Potency, µM (highest dose often 38.3 µM), for inactives: top-dose reporter change, positive = more light; 340,000 tested, under 10 active; active = well fitted rising curve with a large enough effect; inconclusive = small, poorly fitted or top-dose-only effect; inactive = no such curve, though single readings can be large or run the other way;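 further: % of control where 0% means no effect; miR-21 action dims this reporter so a rising signal means less miR-21 action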
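Using DMEM plus 10% FBS, HeLa miR-21-FLuc cells are incubated with test compounds (final up to about 40uM) for 48 hours; firefly luciferase signal is then imaged following reagent-mediated lysis.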
Rango release inh – inhibitors of RanGTP-induced Rango-importin beta complex dissociation; O95149+P62826; Biochemical FRET Rango-importin beta, RanGTP-induced dissociation; Potency, µM (top dose mostly 46.1 µM), inactives show at the top dose activity change, negative = inhibition; hit rate 0.071% among 340,000; active means falling FRET ratio curve, often poorly fitted, with flat reads before Ran was added; inconclusive means other falling curves, or compound fluorescence or quenching; inactive means flat or rising ratio curve;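 further: potency means the concentration at half of the fitted maximal effect; % of control where 0% means no effect; nearly all actives have a fitted effect of over 45% in size; -100% = wells without RanGTP and RCC1; the record marks most hits as doubtful in a second field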
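Compounds sat 5 min at room temperature with 0.1 uM Rango biosensor plus 0.25 uM importin beta, then FRET pre-read. RanGTP-RCC1 (0.6 uM Ran, 2mM GTP, 0.2 uM RCC1) added for 45 min, and the CFP/YFP post-read measured blocked complex dissociation.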
GLA inh pH 4.5 – blocks human alpha-galactosidase A at pH 4.5. 230,000 tested, under 10 active. P06280. activity change, negative = inhibition, % at 105 µM. purified enzyme, 4-MU-alpha-Gal fluorescence, pH 4.5; inconclusive = small, poorly fitted or top-dose-only inhibition, or a rising curve; inactive = flat fitted curve, though single readings scatter; no compound was filed as active;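 further: 0% = full activity with enzyme and -100% = basal without enzyme; dose as in the result columns while the protocol names 77 µM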
Target sequence (P06280 whole entry, looked up): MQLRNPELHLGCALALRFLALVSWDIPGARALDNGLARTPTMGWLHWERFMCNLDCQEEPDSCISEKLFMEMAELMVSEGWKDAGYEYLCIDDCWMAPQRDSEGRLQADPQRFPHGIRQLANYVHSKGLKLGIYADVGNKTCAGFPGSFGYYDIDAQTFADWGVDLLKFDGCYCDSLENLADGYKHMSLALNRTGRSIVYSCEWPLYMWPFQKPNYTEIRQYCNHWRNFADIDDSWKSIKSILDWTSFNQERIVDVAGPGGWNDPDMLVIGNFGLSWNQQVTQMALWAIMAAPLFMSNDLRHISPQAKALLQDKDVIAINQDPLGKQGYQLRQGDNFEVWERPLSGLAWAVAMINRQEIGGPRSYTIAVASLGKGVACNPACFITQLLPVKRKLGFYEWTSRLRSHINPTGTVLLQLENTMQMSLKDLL
An asterisk follows results filed as active; ? = inconclusive; . = not tested or not shown; & = joins results of further samples. Not all compounds are listed, so the mix of outcomes need not match the whole.

SMILES	Rango complex inh	miR-21 reporter	Rango release inh	GLA inh pH 4.5
CC(C)(C)c1cc(NC(=O)c2c(F)cccc2Cl)n(-c2ccccc2)n1	2.0%	6%	-24%	.
Cc1cc(OCc2ccc(C(=O)NN=C3CCCC3)cc2)ccc1Cl	4.7%	-31%	14%	3
Cc1ccc(Cl)cc1NC(=O)C1CCN(S(C)(=O)=O)CC1	0.6%	-2%	15%	-3
COc1ccc(N/C(=N\c2nc(C)cc(C)n2)NC(C)=O)cc1OC	-0.6%	-8%	0%	4
Cc1cc(C)c(NC(=O)C2CCN(c3cnccn3)CC2)c(C)c1	-3.5%	1%	1%	1
CCOC(=O)CSc1nc2ccccc2c(=O)n1CC1CCC(C(=O)NCc2ccco2)CC1 (stereo not given)	-1.6%	-1%	8%	5
Cc1cccc(N2CC(C)Cn3c2nc2c3c(=O)[nH]c(=O)n2C)c1 (stereo not given)	-1.2%	2%	-6%	.
CCOC(=O)c1sc(-c2ccc(Cl)cc2)nc1O	?	-13%	?	0
CC(C)NC(=O)CN1C(=O)C(C)(C)Oc2ccc(C(=O)NC3CCCCC3)cc21	2.6%	11%	-19%	.
CCN(c1cccc(C)c1)S(=O)(=O)c1cn(CC(=O)OC)c2ccc([N+](=O)[O-])cc12	0.1%	2%	-2%	.
COc1cc(/C=C/C(=O)Nc2nnc(CC(C)C)s2)cc(OC)c1OC	4.8%	-14%	16%	-8
COc1ccc(-c2sc3cc4c(cc3c2-c2ccc(OCCN3CCOCC3)cc2)OCO4)cc1	0.6%	.	-7%	.
COc1ccc(S(=O)(=O)N2CCCC2)c(Cl)c1Cl	-1.6%	-29%	-4%	2
COC(=O)c1ccc(CNC(=O)Cn2cnc3c(NCc4ccccc4)ncnc32)cc1	-0.9%	.	31%	.
N#Cc1ccc(CSc2nnc(-c3cccs3)n2-c2ccccc2)cc1	?	5%	5%	-17
CC(=O)Nc1nc(C)c(Oc2ccc(Cl)cc2)c(=O)[nH]1	2.6%	2%	7%	3
COc1ccc(C)cc1S(=O)(=O)NC1CCCCC1	0.3%	0%	-15%	4
COCCNC(=O)c1cc2nc(-c3ccc(F)cc3)cc(C(F)(F)F)n2n1	-4.2%	0%	-16%	2
CC1=CC2=NC(=O)/C(=C\c3cc(C)n(-c4ccccc4F)c3C)C(=N)N2O1	-0.7%	-12%	-8%	-15
COc1nnc(-c2ccc(N3CCCCC3)c(NC(=O)C3CCCCC3)c2)c2ccccc12	-3.3%	-3%	0%	3
N/C(=N\NC(=O)Nc1ccccc1)c1ccccn1	-2.0%	-60%	-7%	-26
Cc1ccccc1CSc1nc(C(C)(C)C)cc(=O)[nH]1	1.1%	-7%	12%	2
CC1=NC(C(F)(F)F)(C(F)(F)F)C(C#N)=C(C)N1	-0.3%	-4%	0%	3
O=C(Nc1nnc(S(=O)(=O)N2CCOCC2)s1)c1cccc(Br)c1	6.0%	-13%&-18%	0%	.
COc1ccc(OCCC(=O)NCC23CC4CC(CC(C4)C2)C3)cc1	-0.7%	-16%	-4%	-2
Cc1cc2nc(CSc3ccccc3)cc(=O)n2[nH]1	-0.2%	-6%	-16%	-8
COc1ccc(OC)c(-n2c(CNC3CCN(Cc4ccccc4)CC3)nc3ccccc3c2=O)c1	-1.7%	-4%	-10%	-3
Cc1ccc(-c2cn3c(=O)cc(C)[nH]c3n2)cc1	7.7%	-15%	3%	2
CN(CC(=O)Nc1cccc(F)c1)C(=O)/C=C/c1ccc2ccccc2n1	-2.7%	-6%	-11%	.
C/C(Cn1nc([N+](=O)[O-])cc1C)=N\NC(=O)COc1ccccc1[N+](=O)[O-]	-0.6%	-44%	8%	-1
O=C(Nc1nncs1)C(Sc1ccccc1)c1ccccc1 (stereo not given)	-0.3%	0%	-8%	-5
COc1cc2cc(C(=O)N/N=C/c3ccccc3Cl)[nH]c2cc1OC	-0.6%	-6%	-15%	.
Cn1cnc2c(oc3ccccc32)c1=O	0.2%	.	-11%	.
CC12CCC(C/C1=N\N=C1\NC(=O)/C(=C\c3ccc(Cl)cc3)S1)C2(C)C (stereo not given)	-4.3%	-11%	-5%	-12
O=C(NCc1ccccn1)C1CCCN(S(=O)(=O)c2cccc3nsnc23)C1 (stereo not given)	-3.2%	1%	5%	-4
CCOc1ccccc1Nc1ncnc2c1cnn2-c1ccccc1	-1.7%	-10%	19%	-3
N=c1oc2ccc(Br)cc2cc1C(=O)NCc1ccccc1	2.6%	3%	-8%	.
CC1=C(C(=O)OC(C)(C)C)C(c2ccco2)C(C#N)=C(N)O1 (stereo not given)	1.3%	-6%	-8%	7
COc1ccc(NC(=S)N2CCCC2)cc1	-1.0%	-30%	19%	1
O=C(NCc1nc2ccccc2[nH]1)C1=C[C@H](c2ccc(Br)cc2)C[C@H](OCc2ccc(CO)cc2)O1	-3.0%	7%	-8%	-5
O=C(/C=C/c1ccccc1)Oc1ccc(C(=S)N2CCOCC2)cc1	2.1%	2%	13%	-10
O=C(NCC1CCCO1)c1c(O)c2cccc3c2n(c1=O)CCC3 (stereo not given)	0.0%	-4%	1%	3
Cc1cccc(C)c1NC(=O)CN(C)C(C)C(=O)NCC(=O)Nc1ccc(F)c(F)c1F (stereo not given)	6.3%	.	0%	.
NS(=O)(=O)c1ccc(S(=O)(=O)N2CCCC2)cc1	-2.6%	-4%	14%	12
COc1cnc(-c2ccccc2)nc1OC	-0.5%	-15%	0%	-5
CCOc1ccccc1NC(=O)NC(=O)N(C)S(C)(=O)=O	0.6%	1%	1%	-5
Cc1ccc(C)c(Oc2cc(NN3CCCCC3)c([N+](=O)[O-])cc2[N+](=O)[O-])c1	-2.1%	-1%	-17%	.
CC(=O)N1CCC(C(=O)c2ccc(Cl)cc2)CC1	0.0%	0%	4%	-3
COc1ccc(C(=O)Nc2cccc(S(C)(=O)=O)c2)cc1OC	-0.6%	-8%	1%	7
Cc1ccc(-c2c(C)n([O-])c3c([n+]2=O)CCCC3)cc1	3.2%	0%	12%	-6
O=C(N/N=C/C1CC2CCC1C2)c1c[nH]c2ccccc12 (stereo not given)	2.1%	-34%	-4%	-12
CN(C(=O)CSc1nncn1C)C1CCCN(Cc2ccccc2F)C1 (stereo not given)	6.1%	-1%	-16%	.
Cc1ccc(CNC(=O)C2CCCN(S(=O)(=O)c3cnc[nH]3)C2)cc1 (stereo not given)	-5.0%	0%	11%	7
CSC(=CC(=O)c1ccccc1)SC	-0.6%	-26%	-4%	7
c1ccc(SCc2nc(-c3ccccn3)no2)cc1	0.7%	-61%	1%	-8
COc1ccc(C(=O)C(CN2CCOCC2)c2ccccc2)cc1 (stereo not given)	3.6%	?	0%	2
CN1CCN(c2ccc(Cl)cc2NC(=O)c2ccc(=O)n(C)n2)CC1	-0.7%	-3%	0%	7
Cc1cc(Sc2nc(N)ncc2[N+](=O)[O-])ncn1	-2.4%	10%	-20%	-2
Cc1ccc(-c2sc(C)nc2CC(=O)O)cc1	1.7%	3%	33%	-1
COc1ccc(CN2CCC(n3nccc3NC(=O)CCCc3ccccc3)CC2)cc1C	-3.3%	20%	1%	.
Continued:
SMILES	Rango complex inh	miR-21 reporter	Rango release inh	GLA inh pH 4.5
COc1ccc2oc(C(=O)OCc3c(C)noc3C)c(C)c2c1	0.6%	-9%	13%	3
O=C(Nc1ccc(N2CCCCC2)cc1)c1ccc2ccccc2n1	-0.6%	-19%	24%	-6
COC(=O)c1ccc(COC(=O)c2c(C)nn(Cc3ccccc3Cl)c2Cl)o1	0.1%	-5%	18%	-13
CCCCCCC(=O)Nc1cc2c(C)cc(=O)oc2cc1C	1.0%	0%	16%	-7
CCOC(=O)C1=C(C)N(C)C(=S)NC1c1cc(OC)ccc1OC (stereo not given)	0.6%	1%	35%	-3
COC(=O)Cc1ccc(NC(=O)c2cccs2)cc1	5.4%	-26%	2%	0
O=C(O)CC1COc2ccccc2N1S(=O)(=O)c1ccc(Br)cc1 (stereo not given)	-2.4%	-2%	-2%	.
COCCN(C(=S)Nc1ccccc1C)C(C)c1cccnc1 (stereo not given)	?	4%	-1%	-5
COc1ccc(N2CCN(C(=O)C3(S(=O)(=O)c4ccc(C)cc4)CC3)CC2)cc1	-0.3%	-2%	-12%	.
CCn1c(=O)n(CC)c2cc(N3CCCC3)c(NC(=O)c3ccc(F)cc3)cc21	-3.9%	-1%	-4%	.
CC(C)(C)c1cc(C(=O)N2CCc3ccccc3C2)ccn1	-0.6%	-16%	-2%	.
COc1ccc(NC(=O)c2cnc(C)cn2)c2ncccc12	.	17%	.	7
Cc1ccc(C(=O)c2c3ccc(C(F)(F)F)cc3[n+]([O-])n2CCC(N)=O)cc1	-3.0%	-4%	2%	.
O=C(CSc1ccc(-c2ccc(Br)cc2)nn1)NCC1CCCO1 (stereo not given)	-1.3%	-3%	-7%	.
CCC(CC)C(=O)c1c[nH]c(C(=O)NCc2ccccc2)c1	0.9%	-4%	-2%	.
CCOC(=O)c1cc(C(C)=O)c(=O)n(C)c1N	3.7%	0%	-2%	-13
CC(=O)Oc1oc(-c2ccccc2)nc1C=Nc1ccc(N(C)C)cc1	1.1%	-7%	-5%	-7
Cc1nn(C)cc1C(=O)Nc1ccccc1Br	3.3%	-26%	-12%	-3
COc1ccc(CC(NC(C)=O)C(=O)NC2CCN(S(=O)(=O)c3cccc4ccccc34)CC2)cc1OC (stereo not given)	1.6%	-3%	0%	2
COc1ccc(Cl)cc1NC(=O)[C@@]1(CC(=O)O)CC(/C=C/c2ccccc2)=NO1	0.4%	-2%	-15%	.
O=C(N/N=C/c1cccnc1)c1ccc(NC(=O)C(c2ccccc2)c2ccccc2)cc1	-0.7%	3%	15%	3
Cc1cccc(Nc2nc(N)nc(CSc3nccn3C)n2)c1	-2.4%	-56%	22%	-7
CCOC(=O)C1CCN(C(=O)CCc2nc3sc4c(c3c(=O)[nH]2)CCCC4)CC1	?	.	?	.
COc1ccc([C@H]2CC(=O)C=C(c3ccc4[nH]ccc4c3)C2)cc1OC	4.2%	.	-21%	.
Cn1ccc2ccc(C3=CC(=O)C[C@H](c4ccc(F)cc4)C3)cc21	2.7%	.	-11%	.
Oc1ccccc1-c1n[nH]c(=S)n1Cc1ccco1	-0.1%	-2%	2%	8
O=c1nc2n(c3ccccc13)Cc1ccccc1-2	.	-4%	.	-2
Cc1ccc(NC(=O)c2cccc(S(=O)(=O)N3CCc4ccccc4C3)c2)nc1	1.1%	.	8%	.
COc1ccc2c(c1)C(=O)CC(O)(C(F)F)O2 (stereo not given)	-0.8%	-5%	-5%	-4
Cc1nc(C(F)(F)F)ccc1C(=O)N1CCCCC1	-3.3%	-10%	0%	-28

Grouped by structure, the compounds so far containing bromine.
SMILES	Rango complex inh	miR-21 reporter	Rango release inh	GLA inh pH 4.5
O=C(Nc1nnc(S(=O)(=O)N2CCOCC2)s1)c1cccc(Br)c1	6.0%	-13%&-18%	0%	.
N=c1oc2ccc(Br)cc2cc1C(=O)NCc1ccccc1	2.6%	3%	-8%	.
O=C(NCc1nc2ccccc2[nH]1)C1=C[C@H](c2ccc(Br)cc2)C[C@H](OCc2ccc(CO)cc2)O1	-3.0%	7%	-8%	-5
O=C(O)CC1COc2ccccc2N1S(=O)(=O)c1ccc(Br)cc1 (stereo not given)	-2.4%	-2%	-2%	.
O=C(CSc1ccc(-c2ccc(Br)cc2)nn1)NCC1CCCO1 (stereo not given)	-1.3%	-3%	-7%	.
Cc1nn(C)cc1C(=O)Nc1ccccc1Br	3.3%	-26%	-12%	-3

The results go on.
SMILES	Rango complex inh	miR-21 reporter	Rango release inh	GLA inh pH 4.5
CCn1c(CSc2ncccn2)nnc1SCC(=O)N1CCCCC1	0.1%	-4%	4%	10
O=C(O)C1C=Cc2ccccc2N1C(=O)c1ccccc1 (stereo not given) (tested in a mixture with another compound)	-2.8%	.	2%	.
COc1ccc(NC(=O)CCNS(=O)(=O)c2cccc3nonc23)cc1Cl	1.5%	-4%	-8%	.
O=C(N/N=C/c1ccc(Cl)c(Cl)c1)c1ccc2nc[nH]c2c1	2.1%	-5%	15%	.
COc1ccc(CONc2ncnc3nonc23)cc1[N+](=O)[O-]	0.1%	4%	7%	-8
c1ccc2c(c1)nc1n2CCN1CCN1CCCC1	-6.1%	-8%	11%	.
